RE007 growth inh: less growth of the S. pombe RE007 Vpr strain | 360,000 tested, 0.21% active | S. pombe RE007 Vpr strain, BacTiter-Glo ATP luminescence, 24 h; control for the full effect not named in the record | Potency, µM (doses to about 92.2 µM), inactives show at the top dose activity change, negative = less growth; active = well fitted falling curve with a large enough effect; inconclusive = small, poorly fitted or top-dose-only effect; inactive = no such curve, though single readings can be large or run the other way;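 note: % is set by controls: 0 for no effect and ±100 for the full control effect; nearly all actives have a fitted effect of over 50% in size; the assay follows cell death caused by Vpr and the record does not say whether a fall means rescue or toxicity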
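Fission yeast strain RE007, carrying one chromosomally integrated HIV-1 vpr copy, was seeded at OD 0.01 in PMG+AL medium with 23 nL pinned compound. After 24 h at 30 °C and 99% humidity, viability was read by BacTiter-Glo luminescence.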
SARS PLpro yeast: inhibitors of SARS-CoV papain-like protease in yeast. S. cerevisiae expressing SARS-CoV PLpro, growth rescue; control for the full effect not named in the record. 330,000 tested, 0.19% active. Potency, µM (highest dose often 32.9 µM), inactives show top-dose activity, positive = growth rescue; active means well fitted rising curve with a large enough effect; inconclusive means small, poorly fitted or top-dose-only effect; inactive means no such curve, though single readings can be large or run the other way; note: 0% is about no effect; nearly all actives have a fitted effect of over 55% in size; growth read by luminescence after 48 h
2A StopGo: lowers the luciferase signal of an FMDV 2A StopGo reporter. human cells with a luciferase reporter of 2A StopGo recoding; control for the full effect not named in the record. Potency, µM (top dose mostly 57.9 µM), without a hit: at the top dose signal change, negative = less light. 410,000 tested, 1.2% active. AID 1159524; active = well fitted falling curve with a large enough effect; inconclusive = small, poorly fitted or top-dose-only effect; inactive = no such curve, though single readings can be large or run the other way; tested in HEK293T cells; note: % is set by controls: 0 for no effect and ±100 for the full control effect; nearly all actives have a fitted effect of over 45% in size; luciferase light after 4 h
Starred values were filed as active, the others as inactive; ? = inconclusive; [ ] = remark or other dose. Potency is the fitted concentration of half-maximal effect.

SMILES	RE007 growth inh	SARS PLpro yeast	2A StopGo
Cc1ccc(OCC(=O)N2CCC(Cc3ccccc3)CC2)c([N+](=O)[O-])n1	-9.9%	-4.3%	-17.3%
Cc1cc(C(=O)O[C@H]2[C@H](Cc3ccccc3)NS(=O)(=O)[C@H]3C[C@@H]4C=C[C@]23O4)ccc1[N+](=O)[O-]	-10.5%	-1.2%	-15.9%
N#Cc1ccsc1NC(=O)COC(=O)c1ccc(Br)o1	-9.8%	-11.5%	17.1%
CC1(C)C(=O)Nc2ccccc2N1C(=O)CSc1ncccn1	-10.2%	-2.2%	0.1%
CCC(C)Sc1ccc(-c2nc3ccccn3c2NCc2ccccc2)cc1OC (configuration not stated)	-5.9%	5.2%	39.8µM*
COc1ccccc1CNC(=O)c1cccc(S(=O)(=O)N(C)c2ccccc2)c1	-4.0%	8.4%	-22.6%
CN(CC(=O)Nc1ccccc1Br)C(=O)COc1ccc2ccccc2c1	-10.2%	0.3%	-17.0%
Cc1ccc(CC(=O)CCc2ccccc2)cc1	-7.9%	-0.3%	43.3%[activator]
O=C(OCc1csc(-c2ccccc2)n1)C1=NN(c2ccccc2)C(=O)CC1	0.8%	-2.1%	26.2%
CC(=O)Nc1sc(C)c(C)c1C(=O)OCC(=O)N(Cc1ccccc1)C(C)C	-7.8%	-0.2%	?
COc1ccc(CN(C(=O)CN2C(=O)NC3(CCC(C)CC3)C2=O)C(C)Cc2cccs2)cc1 (configuration not stated)	?	-2.4%	-21.2%
COC(=O)[C@]1(CC(C)C)N[C@H](c2ccc(SC3CCCCC3)c(OC)c2)[C@@H]2C(=O)N(C)C(=O)[C@@H]21	3.1%	5.1%	0.0%
CCNCc1ccc(OCc2cccs2)c(OCC)c1	-2.5%	3.2%	4.8%
Cc1ccc(/C=C/C(=O)Nc2cc(S(=O)(=O)N3CCOCC3)ccc2N2CCOCC2)cc1	-6.1%	3.2%	-5.6%
CCN(CC)C(=O)OCCc1cc2ccccc2c(=O)o1	4.0%	-2.2%	9.4%
COc1ccccc1C(=O)NC(CCSC)C(=O)NC1CC1 (configuration not stated)	-9.3%	-6.9%	-14.1%
CCC(=O)N(c1ccc(C(=O)O)cc1)c1nc(-c2ccc(OC)cc2)c(C)s1	-6.2%	-1.7%	-20.3%
CN(CC(=O)Nc1ccccc1Br)C(=O)c1ccccc1OCc1ccc(F)cc1	-8.6%	-2.4%	-29.3%
Cc1ccc(C)c(S(=O)(=O)N2CCN(C(=O)/C=C/c3ccco3)CC2)c1	12.9%	0.5%	-21.8%
Cn1cncc1C#Cc1ccc2cc(C3(O)CCCCC3)oc(=O)c2c1	-6.9%	-22.3%	2.3%
CCc1noc(C)c1C(=O)NNC(=O)c1ccccc1Cl	-19.2%	-0.6%	-6.7%
CCCn1ccnc1SC(C)C(=O)Nc1c(C)n(C)n(-c2ccccc2)c1=O (configuration not stated)	-1.6%	1.5%	-6.1%
CCOc1ccc(CCNC(=O)COc2cc(=O)n(C)c3ccccc23)cc1OCC	9.5%	-0.1%	6.5%
O=C(CCCCn1c(=O)c2ccccc2n(Cc2ccccc2)c1=O)NC1CCN(Cc2ccccc2)CC1	-5.2%	2.1%	-2.7%
CCCCN(C(=O)c1cccc(N2C(=O)c3ccccc3C2=O)c1)c1c(N)n(CC(C)C)c(=O)[nH]c1=O	4.8%	3.0%	4.7%
C=CC[C@H](CC(=O)N[C@H](CO)Cc1ccccc1)C(=O)N[C@@H](COC(=O)[C@@H](CC=C)Cc1ccc(F)cc1)Cc1c[nH]c2ccccc12	13.1%	-5.6%	-16.0%
COc1ccc(-c2sc3cc4c(cc3c2-c2ccc(OCCN3CCCCC3)cc2)OCO4)cc1	-13.3%	3.0%	0.0%
Cc1ccccc1/C=C/C(=O)NCC(=O)N1CCC(N(C)C2CCCCC2C)CC1 (configuration not stated)	1.3%	-2.0%	5.7%
CC(C)CCNC(=O)NC(=O)CSc1ncccn1	10.0%	-1.2%	10.6%
CN(C)C(CNC(=O)c1ccc2[nH]c(=O)c(=O)[nH]c2c1)c1ccco1 (configuration not stated)	-27.4%	2.6%	-8.0%
COC(=O)C1=C(c2ccc(F)cc2OCc2ccccc2)C[C@@H]2CC[C@H]1N2C(=O)N1CCCC1	-0.3%	-3.9%	?
CCCCCCSc1ccc([C@@H]2[C@H]3C(=O)N(CC)C(=O)[C@H]3[C@]3(C(=O)OC)CCCCN23)cc1	13.5%	-40.8%	-29.5%
O=C(COC(=O)c1c(Cl)cccc1Cl)NC1CCCCCCC1	-7.6%	-6.5%	16.4%
C[C@H](NC(=O)c1ncn(Cc2ccccc2)c1C(=O)N[C@@H](C)c1ccccc1)c1ccccc1	4.8%	-8.5%	0.0%
CCN1C(=O)[C@H]2[C@H]3CN=C(SCc4ccc(C(=O)OC)cc4)N3[C@@](Cc3ccccc3)(C(=O)OC)[C@H]2C1=O	-1.7%	-3.7%	-20.5%
C[C@H]1COC(=O)[C@@H](Cc2ccc(F)cc2)CC/C=C/C[C@@H](CC(=O)N(CCO)Cc2ccccc2)C(=O)N1	3.2%	-5.7%	?
CCN(CC)C(=O)c1ccc(N)cc1	0.3%	0.6%	4.8%
CN(C(=O)COc1ccccc1)c1nc(-c2ccc(F)cc2)cs1	-5.9%	1.3%	-8.2%
C=CC[C@@H](Cc1ccc(F)cc1)C(=O)OC[C@H]1CCCN1C(=O)[C@H](CC=C)CC(=O)N(CCO)Cc1ccccc1	8.1%	2.6%	?
O=S(=O)(Nc1cccc(-c2cn3c(n2)SCC3)c1)c1cccs1	-14.7%	1.3%	54.4%[activator]
CCOC(=O)C1=CN(Cc2cccc(F)c2)S(=O)(=O)N(CC)C1CCc1ccccc1 (configuration not stated)	8.9%	-19.1%	-21.0%
CCOC(=O)N1CCC(N2Cc3cccc(C(=O)N4CCN(c5cccc(Cl)c5)CC4)c3C2=O)CC1	10.7%	3.1%	-24.8%
CCCCN(C(=O)Nc1ccccc1)C1CCS(=O)(=O)C1 (configuration not stated)	-9.3%	-11.0%	-13.5%
COc1ccc(-c2cc(C(=O)N3CCN(c4ncccn4)CC3)c3ccccc3n2)cc1	2.3%	10.5%	12.3%
Cc1ccc2c(c1)C(=O)C(=O)N2c1ccc(C(F)(F)F)cc1	-4.0%	-0.4%	-18.3%
CC[C@]12c3[nH]c4cc(-c5ccco5)ccc4c3CCN1C(=O)[C@@H](CC(=O)NC/C=C(\C)CCC=C(C)C)C[C@@H]2C(=O)N1CCN(C(=O)C2CC2)CC1	-2.7%	1.8%	?
O=C(CCNS(=O)(=O)c1ccccc1C(F)(F)F)N1CCCCCCC1	2.0%	1.7%	8.8%
O=C(Nc1ccc(NC(=O)c2cc([N+](=O)[O-])ccc2N2CCOCC2)cc1)c1cccs1	0.2%	-0.1%	?
CCC(CO)Oc1cc(NCc2ccc(C(C)(C)C)cc2)c2ncn(C(C)C)c2c1 (configuration not stated)	-8.5%	3.7%	-20.5%
CCOC(=O)[C@H]1[C@H]2COc3ccc(Br)cc3[C@@H]2N2C(=O)CN(Cc3ccc(F)cc3)C(=O)[C@@]12C	4.0%	-12.6%	-27.8%
COc1cc(/C=N\NC(=O)c2ccc(C)nc2)ccc1OC(=O)c1ccc2c(c1)OCO2	12.1%	-0.5%	12.5%
O=C(/C=C/c1cccc(Cl)c1)c1ccc([N+](=O)[O-])o1	11.2µM*	4.6%	11.2µM*
CC(C)(C)NC(=O)C[C@H]1C[C@H](C(=O)N2CCOCC2)[C@@]2(C)c3[nH]c4ccc(Cl)cc4c3CCN2C1=O	10.7%	-10.4%	-16.5%
O=C(c1ccccc1)N1CCN(c2n[nH]c(=O)[nH]c2=O)CC1	2.7%	2.5%	-9.7%
c1ccc(-c2ccccc2OCCCN2CCCCCC2)cc1	3.0%	-0.3%	-15.1%
CCSc1nnc(CNC(=O)c2ccccc2F)n1-c1ccccc1OC	2.1%	6.0%	0.7%
COc1ccc(C(=O)O)cc1S(=O)(=O)Nc1ccccc1C(=O)NCc1ccc2c(c1)OCO2	0.4%	1.3%	-6.3%
O=C(c1ccc(S(=O)(=O)Nc2ccccc2F)cc1)N1CCN(c2ccccn2)CC1	-8.5%	2.9%	?
CC(OC(=O)/C=C/c1cccs1)C(=O)Nc1ccc(S(N)(=O)=O)cc1 (configuration not stated)	7.8%	-0.1%	-34.4%
CCOC(=O)C1=C(C)C(c2ccc(OC)cc2)NC(=O)N1 (configuration not stated)	-5.7%	1.6%	-13.1%

A different layout for part of the listing above.
| Compound | RE007 growth inh | SARS PLpro yeast | 2A StopGo |
| --- | --- | --- | --- |
| CC1(C)C(=O)Nc2ccccc2N1C(=O)CSc1ncccn1 | -10.2% | -2.2% | 0.1% |
| CCC(C)Sc1ccc(-c2nc3ccccn3c2NCc2ccccc2)cc1OC (configuration not stated) | -5.9% | 5.2% | 39.8µM* |
| COc1ccccc1CNC(=O)c1cccc(S(=O)(=O)N(C)c2ccccc2)c1 | -4.0% | 8.4% | -22.6% |
| CN(CC(=O)Nc1ccccc1Br)C(=O)COc1ccc2ccccc2c1 | -10.2% | 0.3% | -17.0% |

5 records picked at random from those above, as already listed:
SMILES	RE007 growth inh	SARS PLpro yeast	2A StopGo
COc1ccc(-c2cc(C(=O)N3CCN(c4ncccn4)CC3)c3ccccc3n2)cc1	2.3%	10.5%	12.3%
CCC(CO)Oc1cc(NCc2ccc(C(C)(C)C)cc2)c2ncn(C(C)C)c2c1 (configuration not stated)	-8.5%	3.7%	-20.5%
CCOC(=O)N1CCC(N2Cc3cccc(C(=O)N4CCN(c5cccc(Cl)c5)CC4)c3C2=O)CC1	10.7%	3.1%	-24.8%
CCCn1ccnc1SC(C)C(=O)Nc1c(C)n(C)n(-c2ccccc2)c1=O (configuration not stated)	-1.6%	1.5%	-6.1%
O=C(/C=C/c1cccc(Cl)c1)c1ccc([N+](=O)[O-])o1	11.2µM*	4.6%	11.2µM*

(list continues)
SMILES	RE007 growth inh	SARS PLpro yeast	2A StopGo
Cc1ccc(C(=O)Nc2ccccc2-c2ccccc2)cc1S(=O)(=O)Nc1ccccc1	5.5%	-6.4%	47.6%[activator]
Cc1ccc(-c2csc(NC(=O)c3c(C)noc3C)n2)cc1	-25.4%	-5.2%	0.0%
Cc1ccc([C@@H]2CC=C(C(=O)O)[C@H](c3cccc(Cl)c3)N2S(=O)(=O)c2ccc(C)cc2)cc1	-8.4%	17.2%	2.6%
CC(=O)Nc1ccc(NC(=O)COC(=O)c2ccccc2C(=O)c2ccccc2)cc1	-15.5%	-10.2%	?
Cc1cccc(NC(=O)C2CCCN2C(=O)OCc2ccccc2)c1 (configuration not stated)	5.5%	1.1%	-16.1%
C#CCOCCOCCOCCNc1nc(N2CCN(C(=O)[C@H](CCCCN)n3cc(CCC(=O)O)nn3)CC2)nc(N2CCN(C(=O)[C@H](CCCCN)n3cc(CC(C)O)nn3)CC2)n1 (some centres not stated)	-11.9%	-5.6%	-13.9%
COC(=O)C1=C(c2ccc(OC(F)(F)F)cc2)C[C@@H]2CC[C@H]1N2C(=O)N1CCCCC1	27.1%	1.1%	?
CC(C)NC(=O)c1ccc(NC(=O)CC2SC(N3CCCC3)=NC2=O)cc1 (configuration not stated)	1.0%	0.1%	3.9%
O=C(C1=C(O)C(=O)N(c2nc3ccc(Cl)cc3s2)C1c1ccco1)c1ccco1 (configuration not stated)	-4.2%	-2.5%	23.7%
Cc1ccc(Cn2nnc3c(=O)n(CC(=O)NCc4ccccc4)cnc32)cc1	-11.6%	1.0%	-16.0%
CC(NC(=O)COc1ccccc1)C(=O)NCc1ccccc1Cl (configuration not stated)	-20.9%	3.1%	-14.4%
c1ccc(-c2ccc3[nH]ccc3c2)cc1	-3.7%	0.7%	61.2%[activator]

Source: PubChem

This is a subset. The share of hits here may be higher or lower than overall.
